NPYLR7 ag: activates Aedes aegypti NPYLR7 receptor | activation, % at 10 µM | AID 1259423 | HEK293T NPYLR7/Galpha15, GCaMP6s calcium fluorescence | 270,000 compounds, 0.15% hits; in the data active means activation above about 40%;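 further: 0% = vehicle and 100% = reference agonist at the receptor; some compounds past the cut are filed as inactive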
NPYLR7 ag max-min: second read-out of NPYLR7 ag, no call of its own (marks repeat the call); activation, %; measured here: Max-Min RFU normalised activation; some inactives read as strong as hits;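 span of the calcium signal over five minutes; 0% = vehicle and 100% = native peptide agonist; compound fluorescence can raise it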
* hit, by the source's call; & = joins results of further samples. This is a subset. The share of hits here may be higher or lower than overall.

1) CN1CCC(NC(=O)NCC2CCN(c3ccc(Br)cc3)C2)C1 (stereo unspecified)
2) O=C(Nc1ccc(N2CCC(Cc3ccccc3)CC2)c(C(=O)N2CCCC2)c1)c1ccc(Cl)cc1Cl
3) COc1cc(=O)n(-c2ccc(C)cc2)nc1C(=O)N1CCN(c2ccccc2Cl)CC1
4) c1ccc(CNCc2c(-c3ccccc3)noc2N2CCCCC2)cc1
5) O=[N+]([O-])c1ccc(NN=C2CC3CC=CC23)c([N+](=O)[O-])c1 (stereo unspecified)
6) CN(C(=O)C1CC(=O)N(Cc2cccc(C(F)(F)F)c2)C1)C1CCc2ccccc21 (stereo unspecified)
7) CC(=O)NC(CC(=O)N1CCc2sccc2C1)c1ccc(Cl)cc1 (stereo unspecified)
8) CC(C)NC(=O)C(C)N1CCN(c2cccc(Cl)c2)CC1 (stereo unspecified)
assay / entry	1	2	3	4	5	6	7	8
NPYLR7 ag	9	22	6	11	-19	4	7	-1
NPYLR7 ag max-min	6	24	0	22	-25	1	7	-2

9) Cc1ccc(-c2noc(CC#N)n2)cc1
10) COc1ccccc1Nc1nc(O)c([N+](=O)[O-])c(=O)[nH]1
11) Cc1cccc(-c2cnc(C)nc2C2CCCN(C(=O)c3ccc(Oc4ccccc4)o3)C2)c1 (stereo unspecified)
12) C(=Nn1c(-c2cccs2)csc1=Nc1ccccc1)c1ccccn1
13) O=C1COCc2ccc(-c3cccnc3)cc2N1CCN1CCOCC1
14) CC#CCN1C(=O)NC(Cc2cccc(F)c2)(C2CCN(C(=O)/C=C/c3cccnc3)CC2)C1=O (stereo unspecified)
15) Cc1oc(-c2ccsc2)nc1CC(=O)N(C)C(C)c1ccncc1 (stereo unspecified)
16) CN1CC2(CCN(Cc3cncn3C3CCCCC3)C2)OC1=O (stereo unspecified)
assay / entry	9	10	11	12	13	14	15	16
NPYLR7 ag	0	0	16	0	4	17	6	3
NPYLR7 ag max-min	-4	0	9	-6	2	3	2	3

17) COCCN(Cc1csc(COc2ccccc2C(C)C)n1)C(=O)Cc1ccccc1
18) Cc1ccccc1-c1cnc(C(O)c2ccc(Cl)cc2C)[nH]1 (stereo unspecified)
19) Cc1ccccc1-n1c(C)cc(C(=O)N2CCOC(C(N)=O)C2)c1C (stereo unspecified)
20) CC12COC3(C(N)=O)CC1CCC32C (stereo unspecified)
21) Cn1c(=O)[nH]cc(CCN2CCc3onc(-c4ccccc4)c3C2)c1=O
22) Cc1cccn2c(=O)c3cc(C(=O)NC4CCS(=O)(=O)C4)sc3nc12 (stereo unspecified)
23) CC1C(=O)N(C)CCN1C(=O)COCc1ccccc1 (stereo unspecified)
24) Cc1ncsc1CCC(=O)N1CCN2CCNC(=O)C2C1 (stereo unspecified)
assay / entry	17	18	19	20	21	22	23	24
NPYLR7 ag	15	-2	-1	0	13	2&10	26	3
NPYLR7 ag max-min	18	-4	-1	1	12	-2&2	18	3

25) COc1ccc2[nH]c(C(=O)N3CC(c4cccnc4)C3)c(C)c2c1
26) CCC1CCc2sc(-c3n[nH]c(=S)n3C)cc2C1 (stereo unspecified)
27) CCn1cc(C(CC(=O)N2CCOCC2)c2ccc(F)cc2)c2ccccc21 (stereo unspecified)
28) CS(=O)(=O)NCCc1ccc(S(N)(=O)=O)cc1
29) NC(=O)c1cccc(CS(=O)(=O)Cc2ccccc2)c1
30) CC(C)Oc1cccc(C(=O)C2CCCN(Cc3ccc(C#CC(C)(C)O)s3)C2)c1 (stereo unspecified)
31) FC(F)(F)c1ccc(CC2CCN(Cc3ccccc3Br)CC2)cc1
32) COc1cc(Br)ccc1OCC(=O)N=Nc1c(O)[nH]c2ccc(F)cc12
assay / entry	25	26	27	28	29	30	31	32
NPYLR7 ag	19	10	8	11	5	2	4	-4
NPYLR7 ag max-min	10	22	4	7	4	0	4	4

33) COCCNC(=O)c1ccc(CSc2nc(N(C)CCc3ccc(OC)c(OC)c3)cc(C(F)(F)F)n2)o1
34) Cn1cc(CN2CCN(c3ncccn3)CC2)c(-c2ccc(Oc3ccccc3)cc2)n1
35) Cc1ccc(-n2nnc3c(=O)n(Cc4cccc(F)c4)cnc32)cc1C
36) O=S(=O)(c1ccccc1)N1CCN(c2nc3ccccc3o2)CC1
37) CO[C@H]1COC[C@@H]1NC(=O)C1(Oc2ccc(Cl)cc2)CCNCC1
38) CCOC(=O)c1cc(-c2ccc(N3CCN(C(=O)c4c(C)noc4C)CC3)cc2)n(-c2cccc(F)c2)n1
39) CCn1ncc(C2=NOC(C(=O)NC3CCCC3)C2)c1C (stereo unspecified)
40) CCOc1ccc(OCC)c(NC(=O)c2nnn(CC(=O)Nc3ccc(C)cc3C)c2N)c1
assay / entry	33	34	35	36	37	38	39	40
NPYLR7 ag	8	13	-2	-3	4	19	7	-7
NPYLR7 ag max-min	5	1	-7	-3	0	12	7	-11

41) CC1(C)Cc2c(sc(NC(=O)C(C)(C)C)c2C#N)C(C)(C)N1
42) COCC1(C(=O)N2CCN3C(=O)CN(C)C(=O)C3C2)CCC1 (stereo unspecified)
43) COc1ccc(NC(C)C2CC2)cc1 (stereo unspecified)
44) CCN(CC1CCCN(CCc2cccc(F)c2)C1)C1CSCCSC1 (stereo unspecified)
45) NC1=NC(=O)/C(=C/c2ccc(-c3ccccc3Cl)o2)S1
46) CCOC(=O)c1nn(-c2cccc(F)c2)c(=O)c2c(NC(=O)c3ccco3)scc12
47) CCOC(=O)c1sc(NC(=O)c2ccc(Cl)s2)nc1C
48) O=C1NC(=O)C2(CCC(C(=O)N(Cc3ccc(F)cc3)C3CC3)CC2)N1 (stereo unspecified)
assay / entry	41	42	43	44	45	46	47	48
NPYLR7 ag	13	4	21	-3	-4	-1	-4	0
NPYLR7 ag max-min	12	3	10	-4	-9	-2	-6	-4

Some of the entries so far, with bars between the fields:
nr | molecule | NPYLR7 ag | NPYLR7 ag max-min
44 | CCN(CC1CCCN(CCc2cccc(F)c2)C1)C1CSCCSC1 (stereo unspecified) | -3 | -4
45 | NC1=NC(=O)/C(=C/c2ccc(-c3ccccc3Cl)o2)S1 | -4 | -9
46 | CCOC(=O)c1nn(-c2cccc(F)c2)c(=O)c2c(NC(=O)c3ccco3)scc12 | -1 | -2
47 | CCOC(=O)c1sc(NC(=O)c2ccc(Cl)s2)nc1C | -4 | -6

Next section:
49) CCOC(=O)Cn1c(=O)c2c(nc3n2CC(C)CN3c2ccc(CC)cc2)n(C)c1=O (stereo unspecified)
50) COC(=O)[C@@H](NC(=O)c1ccccc1OC1CCN(S(C)(=O)=O)CC1)C(C)C
51) OC1CCC(Nc2cncc(Br)c2)CC1 (stereo unspecified)
52) CCCCCCc1ccc(C(=O)N2CCSC2c2cccc(Oc3ccccc3)c2)cc1 (stereo unspecified)
53) CS(=O)(=O)NC1CCN(c2nc(C(=O)O)nc3ccccc23)CC1
54) CC1=C/C(=N/NC(=O)c2n[nH]c(=O)c3ccccc23)CC(C)(C)C1
55) N#Cc1cccc(CN2CCN3C(C(N)=O)=COC3=NC2=O)c1
56) O=C(NN=Cc1ccc(O)cc1)c1cc(-c2cc(Cl)ccc2Cl)n[nH]1
assay / entry	49	50	51	52	53	54	55	56
NPYLR7 ag	3	5	4	-4	5	2	0	-1
NPYLR7 ag max-min	8	6	1	0	5	0	-1	4

57) CCn1ccc(C(=O)N2CCC(O)(CN(C)C)C2)cc1=O (stereo unspecified)
58) CCOc1ccccc1C(=O)NS(=O)(=O)c1ccc(C#N)cc1
59) COc1cccc(C(CN2CCN(C(=O)c3cccnc3SC)CC2)OCc2ccc(C#N)cc2)c1 (stereo unspecified)
60) NS(=O)(=O)c1ccc(CCNC(=O)C2CC=CCC2C(=O)N2CCc3c([nH]c4ccccc34)C2)cc1 (stereo unspecified)
61) CCC(C)N(CC#Cc1ccccc1)Cc1cc2ccc(F)cc2[nH]c1=O (stereo unspecified)
62) COc1ccc(C(=O)Nc2ccc(Nc3ccc(-n4cccn4)nn3)cc2)cc1OC
63) CCCc1nc(N2CCN(Cc3cccc(OC)c3)CC2)c2c(C)nn(-c3ccc(F)cc3)c2n1
64) COc1cccc(-c2ccccc2NC(=O)C2CCN(Cc3cccc(C(C)=O)c3)CC2)c1
assay / entry	57	58	59	60	61	62	63	64
NPYLR7 ag	5	-3	-1	-5	0	-5	1	5
NPYLR7 ag max-min	2	-3	-2	-14	-5	-10	7	0

65) Cc1ccc(C2=NN(C(=O)CN(C)C3CCCCC3)C(c3ccc4c(c3)OCO4)C2)cc1 (stereo unspecified)
66) Cc1cc(C(=O)NN=C2CCCCCCCCCCC2)c(C)o1
67) NC(=O)C(=O)NCCC1CN(Cc2ccc3occc3c2)CCO1 (stereo unspecified)
68) CN(CC(=O)Nc1ccc(Cl)cc1)c1ccc(C#N)cn1
69) Nc1cncc(-c2cc(Cl)ccc2Cl)c1
70) O=S1(=O)N=C(N2CCNCC2)c2ccccc21
71) CCC(C)N1CC23C=CC(O2)C(C(=O)OC(C)C)C3C1=O (stereo unspecified)
72) Cc1cc(C(=O)CSc2nnc(C3CC3)n2C2CC2)c(C)n1CC1CCCO1 (stereo unspecified)
assay / entry	65	66	67	68	69	70	71	72
NPYLR7 ag	-5	-5	2	6	-2	3	0	0
NPYLR7 ag max-min	-1	-9	2	2	-2	1	-2	6

73) CCn1nc(C)c(C(C)NC(=O)c2cc(CC(C)C)nn2C)c1C (stereo unspecified)
74) CCc1nc2c(OCCCN(C)S(C)(=O)=O)cccn2c1N(C)C(=O)c1cccs1
75) CCCCOc1ncnc2c1sc1nc3c(cc12)COC(C)(C)C3
76) COc1cccc(CN2C(=O)C3(SCCN3C(=O)c3ccc(Cl)cc3)c3cc(C)ccc32)c1 (stereo unspecified)
77) Nc1cc(=O)[nH]c(SCC(=O)Nc2ncc(Cl)cc2Cl)n1
78) O=C(NCCc1ccn(-c2ccc(F)cc2)n1)C1CCCO1 (stereo unspecified)
79) CCCCN(Cc1cccn1Cc1ccc(Br)cc1)C(=O)CN(C(=O)COCc1ccccc1)C(C)C
80) CCOC(=O)CCNC(=O)N1CCCC(C(=O)c2ccc(OC)cc2C)C1 (stereo unspecified)
assay / entry	73	74	75	76	77	78	79	80
NPYLR7 ag	-3	14	14	2	5	0	3	-1
NPYLR7 ag max-min	-6	2	6	3	6	-3	8	-2

81) CN(Cc1ccccc1)Cc1nc2c([nH]1)c(=O)n(C)c(=O)n2C
82) CCOCCOc1nc(-c2ccc3c(c2)OCO3)n(-c2ccc(NC(=O)CCC(=O)OCC)cc2)n1
83) N#CCCSCc1ccc2oc(C(=O)O)cc2c1
84) N#CC(=Cc1cccnc1)c1nc2c(s1)CCCC2
85) O=S(=O)(c1ccc(N(CCCCO)C2CC2)cc1)C(F)(F)F
86) CCCS(=O)(=O)Nc1ccc(N(C)C)c(CN(Cc2cccc(F)c2)C(=O)c2cccc(C)c2)c1
87) Cc1cccc(C(=O)N(Cc2cc(NC(=O)c3cccc(F)c3)ccc2N(C)C)C(C)C(C)C)c1 (stereo unspecified)
88) C=c1cc(C)n(CC(=O)Nc2cccc(OC)c2)c(=O)c1=C1N=C(c2ccccc2)NO1
assay / entry	81	82	83	84	85	86	87	88
NPYLR7 ag	-1	21	0	-8	6	26	22	-4
NPYLR7 ag max-min	-3	17	0	-8	3	35	19	-10

89) CCCCc1ncc(CN2CCCC(CNS(=O)(=O)c3ccc(OC)cc3)C2)[nH]1 (stereo unspecified)
90) O=C(c1ccc2c(c1)OCCO2)N(Cc1ccccn1)c1nc2c(Cl)cccc2s1
91) CCn1cc(Cn2ccnc2-c2cc(C#CCO)cs2)cn1
92) CS(=O)(=O)c1ccc(Cl)c(NC(=O)C2=Cc3ccccc3OC2)c1
93) O=S1(=O)N=C(Nc2ccccc2Cl)c2ccccc21
94) CN(Cc1ccccc1-n1cccn1)C(=O)c1cn2ccccc2n1
95) CCOC(=O)c1cc(-c2ccc(N3CCN(C(=O)c4cccc(C#N)c4)CC3)cc2)n(-c2ccc(OC)cc2)n1
96) Cc1ccc(Cn2nccc2N)s1
assay / entry	89	90	91	92	93	94	95	96
NPYLR7 ag	3	-1	3	6	-12	12	8	2
NPYLR7 ag max-min	-2	-1	0	6	-19	7	9	10

97) COCCN(Cc1ccc(OC)cc1)c1c(C)nc2ccc(C(=O)N(C)Cc3ccccc3)cn12
98) CC(=O)N1CCCN(Cc2cc(F)cc(Br)c2)CC1
99) COc1cccc(NCc2cc(=O)oc3cc(C)c(O)cc23)c1
100) O=C(Cn1cncn1)N1CCOc2c(O)cc(-c3cccc(Cl)c3)cc2C1
101) Cc1nnc(C)n1NC(=O)Cc1ccc2c(c1)CCCC2
assay / entry	97	98	99	100	101
NPYLR7 ag	-6	7	3	31	-25
NPYLR7 ag max-min	-10	4	-1	24	-26

Source: PubChem BioAssay (Fisher Drug Discovery Resource Center)
